Source: PubChem BioAssay
CSC inhib – cancer stem cell inhibition. cancer stem cell-like cells viability, luminescence. inhibition, % at 7.5 µM. 300,000 tested, 1.1% active. AID 2717;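 active means mean at 75% or more and at least half the replicates too; inconclusive means mean and replicates disagree; tested in HMLE shEcad cells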;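 further: 0% = median of negative and 100% = median of positive control wells; the first replicate is given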
MT1-MMP act inh – MT1-MMP (human) activation inhibition; GFP/RFP ratio change, % at 20 µM; 360,000 tested, 0.061% active; P50281; HT1080 RFP-PRO-GFP cells, GFP/RFP ratio fluorescence, overnight; percent of plate control window, DMSO zero;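 active means GFP/RFP ratio change of at least 30% with cell ATP level not reduced by more than half and red fluorescence within 50% of control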; further: strong numbers were not always called active
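Read-out: GFP/RFP fluorescence ratio; Test system: RFP-PRO-GFP reporter HT1080 cells; Compound dosing: single-point 20 µM compound, 1% DMSO; Times: overnight compound exposure at 37 °C.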
Rce1 inh – inhibitors of yeast Ras-converting enzyme. yeast membranes, quenched prenylated peptide cleavage fluorescence. 290,000 tested, 0.27% active. Q03530. calls only. AID 2563;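 active means fall in fluorescence gain of 50% or more versus controls, with final raw signal at or below 3038400; inconclusive means same 50% fall but final raw signal above 3038400; inactive means fall in fluorescence gain under 50%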;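 further: plate controls were neutral control wells for no effect and wells lacking membranes for full effect; tested at 10 µM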
eIF4H FP inh – inhibitors of RNA binding by human eIF4H; 290,000 tested, 0.94% active; Q15056; eIF4H fluorescence polarization binding assay; AID 2012; inhibition, % at 35 µM;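 active means 50% or more with normal probe brightness, or confirmed in later tests; inconclusive means above 50% with abnormal brightness, or retests that disagree; inactive means below 50% or failed in later tests; about a fifth of its hits are not listed in these tables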;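 further: calls also rest on retests at 20 µM and on dose response follow-up; 0% = protein and probe with vehicle and 100% = probe without protein; strong numbers were not always called active; many hits fall short of the cut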
HIV Env fusion – inhibitors of HIV Env-mediated cell fusion; HeLa-JRFL Env/CEM21 cell fusion, luciferase; inhibition, % at 12.3 µM; 360,000 tested, 1.1% active; AID 651610;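 active means mean replicate inhibition score of at least 50 and every replicate individually at or above 50; inconclusive means only one of the two criteria met; inactive means mean below 50 and not all replicates reaching 50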;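 further: 0% = plate neutral controls and 100% = maraviroc near 300 nM; one replicate is shown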
PABP polyA inh – PABP-poly(A) binding inhibition | 290,000 tested, 1% active | inhibition, % at 35 µM | PABP-poly(A) RNA binding, fluorescence polarization | P11940;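 active means 50% or more with normal probe brightness, or confirmed in later tests; inconclusive means above 50% with abnormal brightness, or retests that disagree; inactive means below 50% or failed in later tests; about a fifth of its hits are not listed in these tables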;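 further: calls also rest on retests at 20 µM and on dose response follow-up; controls were probe without protein and protein plus probe with vehicle; some compounds called inactive have numbers as strong as hits; many hits fall short of the cut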
Target sequence (P11940 whole entry, looked up): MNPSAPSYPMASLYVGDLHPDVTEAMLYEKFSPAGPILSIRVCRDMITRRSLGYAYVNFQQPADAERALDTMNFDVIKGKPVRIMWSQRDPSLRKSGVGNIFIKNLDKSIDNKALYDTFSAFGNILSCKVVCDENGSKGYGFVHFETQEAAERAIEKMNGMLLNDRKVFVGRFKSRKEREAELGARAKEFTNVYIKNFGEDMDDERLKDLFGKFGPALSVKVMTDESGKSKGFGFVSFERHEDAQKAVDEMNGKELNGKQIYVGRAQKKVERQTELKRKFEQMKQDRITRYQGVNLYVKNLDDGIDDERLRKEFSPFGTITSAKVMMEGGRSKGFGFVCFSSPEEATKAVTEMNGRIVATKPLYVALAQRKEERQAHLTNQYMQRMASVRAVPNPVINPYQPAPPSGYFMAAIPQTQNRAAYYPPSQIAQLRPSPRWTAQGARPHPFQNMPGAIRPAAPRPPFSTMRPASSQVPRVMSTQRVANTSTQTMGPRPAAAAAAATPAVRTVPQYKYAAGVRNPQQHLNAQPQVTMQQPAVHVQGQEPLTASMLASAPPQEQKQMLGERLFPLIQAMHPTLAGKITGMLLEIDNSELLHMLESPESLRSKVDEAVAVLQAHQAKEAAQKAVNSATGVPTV
Yeast UUG start – modulators of start codon recognition fidelity in yeast. S. cerevisiae UUG-firefly luciferase reporter, luminescence/redox ratio. activity score, % at 18.7 µM. 350,000 tested, 0.13% active. AID 602363;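 active means replicate mean at a twofold rise or more, about +100% in these data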;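 further: firefly luciferase made from a UUG start codon reports start codon fidelity; reporter light over untreated wells divided by growth signal over untreated wells; some hits fall short of that in this replicate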
MT1-MMP act inh RFP – recorded beside MT1-MMP act inh, whose call it bears; RFP signal change, %; measured here: RFP expression control read;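 0 = vehicle wells; hits needed this value within 50% of zero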
Starred values were filed as active, the others as inactive; i = inactive; ? = inconclusive; / = not tested or not shown. Rows were taken by chance. About 2.9% of those tested had a hit in this group.

SMILES	CSC inhib	MT1-MMP act inh	MT1-MMP act inh RFP	Rce1 inh	eIF4H FP inh	HIV Env fusion	PABP polyA inh	Yeast UUG start
COC(=O)C1=CO[C@@H](O[C@@H]2O[C@H](CO)[C@@H](O)[C@H](O)[C@H]2O)C2C1C=C[C@@]2(O)CO (stereo partly specified)	1	-4	1	/	/	-25	/	-18
Cc1ccc(NC(=O)NC2CCCN2S(=O)(=O)c2ccc(Cl)cc2)cc1 (stereo unspecified)	-7	1	4	i	-2	16	4	-16
Cc1ccc(N2C(=O)CSC2c2cccnc2)c(Cl)c1 (stereo unspecified)	20	0	1	i	-2	-24	4	/
CCC(CC)C(=O)N=C1SC2CS(=O)(=O)CC2N1CCc1ccc(OC)cc1 (stereo unspecified)	0	3	1	i	-3	/	5	10
COc1ccc(CCN2C(=O)c3[nH]nc(-c4ccccc4O)c3C2c2cccc(Cl)c2)cc1 (stereo unspecified)	18	-10	-23	i	-4	/	5	/
O=S(=O)(c1ccc(F)cc1)N1CCN(c2ncnc3c2cnn3-c2ccccc2)CC1	-5	3	4	i	1	/	1	-18
COc1ccc(CCNC(=O)c2nnn(CC(=O)Nc3c(C)cc(C)cc3C)c2N)cc1OC	1	1	0	i	-6	-4	-4	-11
c1ccc(-c2cc(-c3nnco3)c3ccccc3n2)nc1	-6	-1	3	i	13	-13	16	-7
O=C1Nc2ccccc2OC1CC(=O)N1CCN(c2cccc(C(F)(F)F)c2)CC1 (stereo unspecified)	2	0	2	i	0	-34	-1	13
O=C(OCn1nnc2ccccc2c1=O)c1ccc(O)cc1	-5	0	6	i	-20	11	-12	/
COc1cccc2c1OC1(C)CC2/C(=C(\C)O)C(=O)N1 (stereo unspecified)	-12	4	-4	i	-2	-41	2	-16
CCc1ccccc1NC(=O)CN1CCN(C(=O)CN2C(=O)NC3(CCCCC3C)C2=O)CC1 (stereo unspecified)	/	2	-5	/	/	-8	/	12
Cc1cccc(C)c1NC(=S)NC(=O)CCc1ccccc1	-8	-3	-10	i	0	/	2	-22
NC(=O)C1CC(=O)N(CCc2ccc(F)cc2)C1 (stereo unspecified)	-4	0	3	i	0	2	5	-4
CC(C)(C)n1ncc2c(=O)n(CC(=O)c3ccccc3)cnc21	-12	1	-1	i	-2	/	-9	0
CCc1ncc(/C=C2\C(=O)Nc3ccccc32)[nH]1	/	-11	-3	i	-18	21	-7	-20
O=C(/C=C/c1ccccc1[N+](=O)[O-])Nc1cccnc1	-11	6	6	i	4	10	12	/
CC(C)c1ccc(Cc2nnc(NCCCO)[nH]c2=O)cc1	14	1	4	i	-2	/	3	-1
N#C/C(=C\c1ccc(C(=O)O)cc1)S(=O)(=O)c1cc(Br)ccc1Br	-3	4	10	i	-2	-9	21	/
CCNC(=S)NS(=O)(=O)c1ccc(C)cc1	-13	-5	6	i	0	-43	-6	/
CC1CCOC(c2coc3ccccc3c2=O)O1 (stereo unspecified)	-1	-2	3	i	4	-33	10	-12
CCCn1nc(NS(=O)(=O)c2ccc(F)cc2)c2cc3ccccc3nc21	-6	-3	3	i	1	2	7	-27
O=S(=O)(NC1CC1)c1ccccc1	-8	-3	-1	i	-1	-2	-1	-11
O=C(COc1ccc(Br)cc1)Nc1ccc2oc(=O)ccc2c1	-1	2	5	i	-1	-16	-2	-4
CCC(C(=O)O)N1C(=O)/C(=C/c2cccn2C)SC1=S (stereo unspecified)	9	-5	11	/	?	8	12	/
CCN(C(=O)COc1ncnc2ccccc12)C1CCCCC1	-11	1	3	/	/	-91	/	4
O=C(c1ccc(F)cc1)N1CCN(C2CCC(c3ccccc3)CC2)CC1 (stereo unspecified)	45	-4	-9	/	3	15	9	-2
CCCC(=O)Nc1ccccc1NC(=O)c1ccc(OC)cc1	-17	0	-2	i	12	7	-3	/
COC(=O)CCCC(=O)NCC1(N(C)Cc2ccccc2)Cc2ccccc2C1	-6	1	2	i	-1	-11	8	-13
CCC(C)(C)C1CCC2(CC1)NC(=O)N(CC(=O)NCCOc1ccccc1)C2=O (stereo unspecified)	/	1	-2	/	/	-5	/	-10
CCS(=O)(=O)NCc1csc(C)n1	-5	5	6	i	-14	/	1	-9
O=C(N/N=C/c1ccncc1)c1ccc(COc2cccc3cccnc23)cc1	1	-4	-2	i	11	31	8	-12
Cc1c(C2C(C#N)=C(N)N(c3cccc([N+](=O)[O-])c3)C3=C2C(=O)CCC3)cnn1C (stereo unspecified)	1	/	/	i	3	-2	1	/
N#Cc1c(NC(=O)CCN2C(=O)c3ccccc3C2=O)oc(-c2ccccc2)c1-c1ccccc1	1	0	1	i	-6	/	0	-14
O=C(CSc1ccc(-c2ccccn2)nn1)c1ccc([N+](=O)[O-])cc1	-10	5	4	i	-4	-85	-15	/
COC(=O)CSc1nnnn1-c1cccc2ccccc12	3	-1	-4	i	-1	-22	-10	-4
CCOc1ccc(-c2csc(NC(=O)c3cccc(N4C(=O)CCC4=O)c3)n2)cc1	-24	3	1	i	-2	10	3	-12
CCN(Cc1ccc(OC)c(F)c1)C(=O)c1cc2ccccc2o1	-10	2	0	/	-14	-6	14	0
C[N+]1(CCN2C(=O)C3CC=C(Cl)CC3C2=O)CCOCC1 (stereo unspecified)	11	4	4	i	-3	/	-1	-17
O=C1NC(c2ccc3ccccc3c2)Nc2ccccc21 (stereo unspecified)	/	4	-7	/	/	-53	/	-16
CCOC(=O)c1sc2nc(C)nc(NCCc3ccc(S(N)(=O)=O)cc3)c2c1C	-9	-1	-1	/	-6	2	-2	5
Nc1nc2c(ncn2[C@@H]2O[C@H](CNCc3ccc(OCCCN4CCOCC4)cc3)[C@@H](O)[C@H]2O)c(=O)[nH]1	/	0	0	/	/	27	/	-15
Clc1ccccc1N/N=C/c1ccc2c(c1)OCO2	8	-3	2	i	-9	-30	9	1
Cc1cc(C)n(-c2cccc(C(=O)O)c2)n1	-11	3	-3	i	-7	1	0	/
Cc1ccc(S(=O)(=O)N2[C@@H](c3ccc(Br)cc3)C(C(=O)O)=CC[C@H]2c2cccc(Cl)c2)cc1	/	0	1	/	/	-1	/	-9
COc1cc(OC)c(-n2cc(-c3ccc(Cl)cc3)[nH]c2=O)cc1Cl	-16	-3	-5	i	2	-16	9	/
O=C(Nc1ccc(-c2nnc(-c3ccccc3)o2)cc1)C1CCCO1 (stereo unspecified)	-1	3	-3	i	-10	-89	-13	-10
CN1CCN(S(=O)(=O)CC2(C)C3CCC2(C)C(=O)C3Br)CC1 (stereo unspecified)	-7	-3	0	i	-5	-2	9	-11
COc1ccc2oc(C(=O)Nc3ccc(N4CCOCC4)cc3)c(C)c2c1	5	1	0	i	/	-6	/	/
Cc1ccccc1OCC(O)Cn1c(Br)nc2c1c(=O)n(C)c(=O)n2C (stereo unspecified)	2	0	-6	i	2	-8	9	-1
Cc1cc(=O)n(CCC(=O)O)c2ccccc12	-10	2	0	i	7	/	3	-7
COc1ccc(NC(=O)c2nc[nH]c2C(=O)N(C)CCO)cc1	/	3	4	/	/	23	/	-10
Cc1ccc(SCCC(=O)Nc2ccc(OCc3ccccc3)cc2)cc1	-3	-2	0	i	-9	-85	-2	/
O=C1/C(=C/c2ccccc2[N+](=O)[O-])COc2ccccc21	-27	-13	-28	i	0	-349	-18	-11
CC1CC(c2ccccc2)NS(=O)(=O)O1 (stereo unspecified)	0	6	5	i	-3	3	-6	-21
O=C(NCc1ccncc1)Nc1ccccc1	10	-1	5	i	6	-287	-7	-11
C=CCn1c(=O)/c(=C\c2ccsc2)s/c1=C(/C#N)C(=O)NCCN1CCOCC1	-8	1	3	i	-10	/	-6	-6
C/C=C\C=C\C(=O)Nc1cccc(C2=NOC3(C2)C[C@H](C(N)=O)N(C(=O)c2ccccc2C(=O)c2ccccc2)C3)c1 (stereo partly specified)	-35	/	/	i	10	/	2	/
Cc1ccc2nc(/C(C#N)=C\c3cc(O)ccc3[N+](=O)[O-])[nH]c2c1	-13	-2	4	i	11	1	-4	/
CN(c1ccc(C(=O)NCc2cccs2)cc1)S(=O)(=O)c1ccccc1	-11	1	4	i	-1	11	-6	/

Three compounds picked at random from those above:
SMILES	CSC inhib	MT1-MMP act inh	MT1-MMP act inh RFP	Rce1 inh	eIF4H FP inh	HIV Env fusion	PABP polyA inh	Yeast UUG start
CN(c1ccc(C(=O)NCc2cccs2)cc1)S(=O)(=O)c1ccccc1	-11	1	4	i	-1	11	-6	/
C=CCn1c(=O)/c(=C\c2ccsc2)s/c1=C(/C#N)C(=O)NCCN1CCOCC1	-8	1	3	i	-10	/	-6	-6
O=C1/C(=C/c2ccccc2[N+](=O)[O-])COc2ccccc21	-27	-13	-28	i	0	-349	-18	-11

Molecules from the list above that have a furan ring, fused or not:
SMILES	CSC inhib	MT1-MMP act inh	MT1-MMP act inh RFP	Rce1 inh	eIF4H FP inh	HIV Env fusion	PABP polyA inh	Yeast UUG start
N#Cc1c(NC(=O)CCN2C(=O)c3ccccc3C2=O)oc(-c2ccccc2)c1-c1ccccc1	1	0	1	i	-6	/	0	-14
CCN(Cc1ccc(OC)c(F)c1)C(=O)c1cc2ccccc2o1	-10	2	0	/	-14	-6	14	0
COc1ccc2oc(C(=O)Nc3ccc(N4CCOCC4)cc3)c(C)c2c1	5	1	0	i	/	-6	/	/

The list continues:
SMILES	CSC inhib	MT1-MMP act inh	MT1-MMP act inh RFP	Rce1 inh	eIF4H FP inh	HIV Env fusion	PABP polyA inh	Yeast UUG start
COc1cc(NC(=O)C(F)(F)F)cc(OC)c1	-15	2	-2	i	-5	-42	0	-14
Cc1ccc(C(=O)CSc2cnc3ccccc3n2)cc1C	/	-4	-1	i	27	-31	-6	/
Cc1ccc(NC2CCCN(C(=O)Cc3nonc3C)C2)cc1C (stereo unspecified)	-21	4	3	i	8	-3	8	-8
CCOC(=O)C1=NN(c2ccc([N+](=O)[O-])cc2)CC1C(=O)OC (stereo unspecified)	-13	-1	-1	i	-1	-20	-4	/
Cc1c(N=c2scc(-c3ccccc3)n2CCO)c(=O)n(-c2ccccc2)n1C	-10	5	3	i	-2	15	23	-9
O=C(Nc1ccc(C(=O)O)cc1)/C(=C\c1ccco1)NC(=O)c1ccco1	11	0	6	i	15	-27	8	-12
CC(C)(C)OC(=O)N/N=C/c1c[nH]c2ccccc12	-4	0	2	i	-4	-6	-1	/
O=C(O)/C=C/C(=O)NNC(=O)c1ccccc1Br	-10	5	5	i	1	/	9	/
CC1(C)CC(=O)C(C=NCCN2CCN(C3CC(=O)N(c4ccc(F)cc4)C3=O)CC2)=C(O)C1 (stereo unspecified)	-5	3	8	i	-12	4	3	-20
CC1Cc2cc(S(=O)(=O)NCCc3ccccc3)ccc2N1C(=O)C1CC1 (stereo unspecified)	15	3	1	i	/	-2	/	/
COc1cccc(NC(=O)CN2C(=O)C3(OCCCO3)c3ccccc32)c1	/	0	0	i	-8	/	3	/
COc1cc(NC(=O)CN(C)CCOc2ccccc2)c(C)cc1[N+](=O)[O-]	-6	4	-5	i	-4	7	3	1
COc1ccc(S(=O)(=O)NCCN2CCOCC2)cc1Br	-16	-6	-4	i	-4	-2	5	-6
CCN(C(=O)CSc1nnc(C)n1-c1cccc(C)c1)C1CCS(=O)(=O)C1 (stereo unspecified)	-9	0	0	/	/	2	/	21
CCCn1nc(C(=O)Nc2ccc3c(c2)OCCO3)c2ccccc2c1=O	/	-7	0	/	/	3	/	-13
CC1=C(C)C(=O)OC(C(C)C2CCC3C4CC=C5CC(OC6OC(COC7OC(CO)C(O)C(O)C7O)C(O)C(O)C6O)CC(O)C5(C)C4CCC23C)C1 (stereo unspecified)	-4	0	2	i	8	/	12	-5
Cc1ccc(Cc2c(-c3ccc(F)cc3)nc3ccc(Cl)cn23)cc1	/	-13	-5	/	/	-8	/	-6
